# Shiga inhibitor: A qHTS for Small Molecule Inhibitors of Shiga Toxin | Vero cells, Shiga toxin protein synthesis inhibition reporter | inhibition, % at 38.7 µM | 9.2% of 290,000 active | AID 2315, 2010; in the data active = inhibition mostly above about 28%, no sharp cut-off; inactive = mostly below about 43%; note: 0% is about no effect
# LmPK inhibitor: qHTS Assay for Inhibitors of Leishmania Mexicana Pyruvate Kinase (LmPK); Q27686; Potency, µM (titrated, usually from 57.5 µM), for inactives: top-dose activity change, negative = inhibition, hits mostly inhibitors; purified LmPK, Kinase-Glo ATP luminescence, 1 h; 0.37% of 290,000 active; note: potency is the fitted concentration of half-maximal effect; % is set by controls: 0 for no effect and ±100 for the full control effect
# Target sequence (Q27686 whole entry, looked up): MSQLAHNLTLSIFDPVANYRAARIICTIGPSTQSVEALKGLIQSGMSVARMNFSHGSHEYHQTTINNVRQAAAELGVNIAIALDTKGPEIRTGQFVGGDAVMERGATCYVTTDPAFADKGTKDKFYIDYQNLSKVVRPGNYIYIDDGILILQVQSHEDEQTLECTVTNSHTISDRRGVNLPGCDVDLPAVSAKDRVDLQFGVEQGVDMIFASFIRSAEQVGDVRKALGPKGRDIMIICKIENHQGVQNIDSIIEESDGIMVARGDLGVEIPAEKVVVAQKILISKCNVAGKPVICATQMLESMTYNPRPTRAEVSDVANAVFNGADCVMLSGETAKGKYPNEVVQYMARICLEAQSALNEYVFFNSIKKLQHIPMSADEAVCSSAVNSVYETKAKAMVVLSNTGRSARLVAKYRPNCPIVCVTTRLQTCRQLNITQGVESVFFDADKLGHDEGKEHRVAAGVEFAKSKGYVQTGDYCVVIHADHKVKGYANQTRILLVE
#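 Purified LmPK (0.1 nM) converted ADP (0.1 mM) to ATP with PEP (0.5 mM) in imidazole buffer pH 7.2 with KCl and MgCl2, 1 h at room temperature. ATP was read by Kinase-Glo luminescence; data normalized to uninhibited and no-enzyme controls.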
# TbPYK inhibitor: qHTS of Trypanosoma Brucei Inhibitors. pyruvate kinase (Trypanosoma brucei), Q57TT1. TbPYK enzyme, Kinase-Glo Plus ATP luminescence, 45 min. Potency, µM (top dose mostly 76.8 µM), for inactives: at the highest dose activity, negative = inhibition, usual class: inhibitors. 0.12% of 410,000 active. AID 624173, 2012; note: potency is the fitted concentration of half-maximal effect; % is set by controls: 0 for no effect and ±100 for the full control effect; nearly all actives have a fitted effect of over 50% in size
#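 Luminescence from Kinase-Glo Plus, added after a 45-minute room-temperature reaction, served as the end-point read-out. The enzyme and substrate were preincubated with compound before ADP (130 uM final) initiated turnover. Concentration-effect curves came from normalized qHTS data.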
# CHX counter: Cycloheximide Counterscreen for Small Molecule Inhibitors of Shiga Toxin; cell reporter, cycloheximide protein synthesis inhibition counterscreen; AID 2314, 2010; max response, %; 12% of 300,000 active; in the data active = max response mostly above about 13%, no sharp cut-off; inactive = mostly below about 14%; note: read at 38.3 µM for the half of the compounds with a filed dose; 0% is about no effect
# * = called active by the depositor; ? = inconclusive; nt = not tested or not shown; & = joins results of further samples. Unless noted, calls come from the whole dose curve; as a rule, active = well fitted curve in the direction sought with a large enough effect; inconclusive = small, poorly fitted or top-dose-only effect, or another doubt; inactive = no such curve, though single readings can be large; an effect the other way counts as inactive or inconclusive. The list is partial, so the mix of outcomes need not match the whole.
cpd | SMILES | Shiga inhibitor | LmPK inhibitor
1 | COc1ccccc1N1CCN(CCCCOc2ccc(C)cc2C)CC1 | -6.2 | -7.4%
2 | COc1ccc(CN2CCN(C(=O)c3ccc(F)cc3)CC2)c(OC)c1 | nt | -3.0%
3 | COc1c(N2C[C@@H]3CCCN[C@@H]3C2)c(F)cc2c(=O)c(C(=O)O)cn(C3CC3)c12 | nt | nt
4 | CCOc1ccccc1C1NC(=O)c2ccccc2N1 (configuration not stated) | nt | nt
5 | CN1CCc2ccccc2Cc2[nH]c3ccccc3c2CC1 | nt | nt
6 | O=C(CN1CCN(C/C=C/c2ccccc2)CC1)Nc1cc([N+](=O)[O-])ccc1Cl | -10.2 | -2.5%
7 | NC(=O)c1c(NC(=O)c2ccccc2F)sc2c1CCC2 | nt | nt
8 | O=C1NC[C@H](c2ccccc2)OC(=O)[C@H](Cc2ccc(F)cc2)CC/C=C/C[C@H]1CC(=O)N(CCO)Cc1ccccc1 | nt | nt
9 | CCOC(=O)c1cnc(SCC(=O)Nc2ccccc2C(=O)OC)nc1N | -7.0 | 2.9%
10 | COc1cc(CN2CCCN(C)CC2)c([N+](=O)[O-])cc1OC | -4.4 | -6.4%
11 | CCOc1ccc(NC(=O)CSc2nnc(-c3ccccn3)n2N)cc1 | 14.9 | 4.1%
12 | CCOc1ccc2nc(NCCNC(=O)C(C)(C)C)c(C)cc2c1 | 36.8 | 2.6%

cpd | TbPYK inhibitor | CHX counter
1 | 11.6% | -3.7
2 | 6.0% | 4.5
3 | -0.3% | nt
4 | -6.3% | nt
5 | 5.6% | nt
6 | 16.2% | -4.8
7 | 9.2% | nt
8 | 1.0% | nt
9 | -2.5% | -1.9
10 | ? | -2.2
11 | 1.7% | 10.6
12 | 3.0% | 3.7

# The list continues.
cpd | SMILES | Shiga inhibitor | LmPK inhibitor
13 | O=C(CC(=O)NC1CCCCC1)N/N=C/c1ccc(Cl)cc1 | -16.7 | 0.9%
14 | COc1ccc(CC(C)NCC(O)c2ccc(O)c(NC=O)c2)cc1 (configuration not stated) | nt | nt
15 | Oc1ccc(-c2nnc(SCc3ccccc3)o2)cc1 | 60.7* | -7.6%
16 | CCOC(=O)C1=C(C)N(Cc2ccccc2)C(=O)NC1c1ccc(OC)cc1 (configuration not stated) | -19.3 | -1.4%
17 | O=C(NCCN1CCC(n2c(=O)[nH]c3ccccc32)CC1)c1ccc2ccccc2c1 | nt | nt
18 | CN1[C@@H]2CCC[C@H]1CC(NC(=O)c1nn(C)c3ccccc13)C2 (some centres not stated) | nt | nt

cpd | TbPYK inhibitor | CHX counter
13 | -8.8% | 8.0
14 | -2.1%&2.4%&1.1% | nt
15 | -0.2% | 46.0*
16 | 4.3% | -3.8
17 | 0.0% | nt
18 | 0.8% | nt

# In another format: 9 of the compounds above.
4. CCOc1ccccc1C1NC(=O)c2ccccc2N1 (configuration not stated)
5. CN1CCc2ccccc2Cc2[nH]c3ccccc3c2CC1
6. O=C(CN1CCN(C/C=C/c2ccccc2)CC1)Nc1cc([N+](=O)[O-])ccc1Cl
7. NC(=O)c1c(NC(=O)c2ccccc2F)sc2c1CCC2
8. O=C1NC[C@H](c2ccccc2)OC(=O)[C@H](Cc2ccc(F)cc2)CC/C=C/C[C@H]1CC(=O)N(CCO)Cc1ccccc1
9. CCOC(=O)c1cnc(SCC(=O)Nc2ccccc2C(=O)OC)nc1N
10. COc1cc(CN2CCCN(C)CC2)c([N+](=O)[O-])cc1OC
11. CCOc1ccc(NC(=O)CSc2nnc(-c3ccccn3)n2N)cc1
12. CCOc1ccc2nc(NCCNC(=O)C(C)(C)C)c(C)cc2c1

Compound,4,5,6,7,8,9,10,11,12
Shiga inhibitor,nt,nt,-10.2,nt,nt,-7.0,-4.4,14.9,36.8
LmPK inhibitor,nt,nt,-2.5%,nt,nt,2.9%,-6.4%,4.1%,2.6%
TbPYK inhibitor,-6.3%,5.6%,16.2%,9.2%,1.0%,-2.5%,?,1.7%,3.0%
CHX counter,nt,nt,-4.8,nt,nt,-1.9,-2.2,10.6,3.7

# High-throughput results from PubChem.
